# Source: PubChem BioAssay
# AID504770: growth inhibitors of E. coli YBA685 in a screen for V. cholerae RctB (chromosome II replication) inhibitors | AID 504770 | z-score (no concentration beside the values) | hit rate 0.27% among 130,000 | E. coli YBA685 rctB-dependent plasmid, OD600 growth, 3 h; stronger effect = lower value;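 active means z-score under -2 on both plates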;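 further: wells of about 30 µL received 100 nL stock; score is relative to mean and SD of the test wells; the first replicate is given; strong numbers were not always called active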
# CapD inh: CapD enzyme inhibition; purified CapD enzyme, fluorescence intensity read-out; stronger effect = lower value; some hits fall short of the stated cut; z-score (test concentration not listed); hit rate 0.23% among 140,000;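 active means z-score under -4 in either of two replicates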;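 further: stock transfer was 100 nL into about 40 µL; score is relative to mean and spread of the plate; one replicate is shown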
# * hit, by the source's call; · = not tested or not shown.
# The opening 18 compounds (preview)
SMILES,AID504770,CapD inh
COC(=O)c1sc2scc(C)c2c1C,·,-0.615
CN(C)CCCNc1ncnc2c1c(-c1ccccc1)cn2-c1ccccc1,-0.8,-0.49
COC(=O)c1cc(COC(=O)c2ccc3ncsc3c2)oc1C,0.55,·
CC(CN1CCOCC1)OC(=O)C1c2ccccc2Oc2ccccc21 (centres undefined),-0.3,·
O=C(Cc1ccc(-c2ccccc2)cc1)OCC(=O)N1CCCC1,2,·
CCC(=O)N1c2ccccc2NC2=C(C(=O)CC(c3ccco3)C2)C1c1ccco1 (centres undefined),1.2,5.54
CCCNC(=O)c1cc(OCC(F)(F)F)ccc1OCC(F)(F)F,·,-0.555
COc1ccc(Nc2nc(N(C)N)nc(C)c2[N+](=O)[O-])cc1,·,-0.15
Cc1ccc(Oc2cccc(/C=N/NC(=O)Cc3csc(-c4ccccc4)n3)c2)cc1,·,0.55
CC(C)Oc1ccc(/C=N/NC(=O)c2ccccc2NC(=O)c2cccs2)cc1,·,0.945
O=C(NCc1cccnc1)c1cccc(NC(=O)N2CCCCc3ccccc32)c1,-0.2,0.465
COc1ccc(C(=O)c2cc3cc([N+](=O)[O-])ccc3o2)cc1,·,-0.23
Cc1ccccc1S(=O)(=O)Nc1nc2ccccc2nc1NCCO,-0.45,·
O=c1c2c3c(sc2ncn1CCn1cnc2sc4c(c2c1=O)CCCC4)CCCC3,-0.05,·
Cc1sc2nc(SC3CCOC3=O)[nH]c(=O)c2c1C (centres undefined),1.55,-0.02
O=C1N/C(=C/c2ccco2)C(=O)N1c1cccc(Cl)c1,1.75,0.255
O=C1c2ccc([N+](=O)[O-])c3c([N+](=O)[O-])ccc(c23)C(=O)N1c1ccccc1Br,·,-0.59
Oc1ccccc1N1CCN(CCOc2ccc(Cl)cc2Cl)CC1,-0.45,·

# This part in full, previewed entries included:
SMILES,AID504770,CapD inh
COC(=O)c1sc2scc(C)c2c1C,·,-0.615
CN(C)CCCNc1ncnc2c1c(-c1ccccc1)cn2-c1ccccc1,-0.8,-0.49
COC(=O)c1cc(COC(=O)c2ccc3ncsc3c2)oc1C,0.55,·
CC(CN1CCOCC1)OC(=O)C1c2ccccc2Oc2ccccc21 (centres undefined),-0.3,·
O=C(Cc1ccc(-c2ccccc2)cc1)OCC(=O)N1CCCC1,2,·
CCC(=O)N1c2ccccc2NC2=C(C(=O)CC(c3ccco3)C2)C1c1ccco1 (centres undefined),1.2,5.54
CCCNC(=O)c1cc(OCC(F)(F)F)ccc1OCC(F)(F)F,·,-0.555
COc1ccc(Nc2nc(N(C)N)nc(C)c2[N+](=O)[O-])cc1,·,-0.15
Cc1ccc(Oc2cccc(/C=N/NC(=O)Cc3csc(-c4ccccc4)n3)c2)cc1,·,0.55
CC(C)Oc1ccc(/C=N/NC(=O)c2ccccc2NC(=O)c2cccs2)cc1,·,0.945
O=C(NCc1cccnc1)c1cccc(NC(=O)N2CCCCc3ccccc32)c1,-0.2,0.465
COc1ccc(C(=O)c2cc3cc([N+](=O)[O-])ccc3o2)cc1,·,-0.23
Cc1ccccc1S(=O)(=O)Nc1nc2ccccc2nc1NCCO,-0.45,·
O=c1c2c3c(sc2ncn1CCn1cnc2sc4c(c2c1=O)CCCC4)CCCC3,-0.05,·
Cc1sc2nc(SC3CCOC3=O)[nH]c(=O)c2c1C (centres undefined),1.55,-0.02
O=C1N/C(=C/c2ccco2)C(=O)N1c1cccc(Cl)c1,1.75,0.255
O=C1c2ccc([N+](=O)[O-])c3c([N+](=O)[O-])ccc(c23)C(=O)N1c1ccccc1Br,·,-0.59
Oc1ccccc1N1CCN(CCOc2ccc(Cl)cc2Cl)CC1,-0.45,·
CC(C)(C)C(=O)CSc1ccc(Br)cc1,1.85,-1.36
Cc1oc(=O)c(NC(=O)c2ccc(Cl)cc2)cc1C(=O)c1ccccc1,·,0.065
COc1cc(OC)nc(CSCC(=O)NC(C)c2ccccc2)n1 (centres undefined),·,-0.6
Cc1ccc(N=c2oc3ccccc3cc2-c2nc3ccccc3s2)cc1,·,0.67
O=C(O)CN(CC(=O)O)Cc1cc2c(-c3ccccc3C(=O)O)c3cc(CN(CC(=O)O)CC(=O)O)c(=O)cc-3oc2cc1O,-0.1,1.07
Cc1ccc(/C(O)=C2/C(=O)C(=O)N(CCCN3CCOCC3)C23C(=O)N(C)c2ccccc23)cc1F (centres undefined),1.15,-1.25
CN1CCN(C(=O)c2cc(N3CCCCC3)ccc2N)CC1,0.4,0.53
FC(F)(F)c1ccccc1CN1CCN(CC2CC3C=CC2C3)CC1 (centres undefined),-0.55,-0.11
CCSc1nc2c(cnn2-c2ccccc2)c(=O)[nH]1,0.5,-0.69
COC(=O)c1cc2c(C(F)(F)F)cc(-c3ccccc3)nc2s1,-0.6,1.72
Cc1ccc(C(=O)n2ccc(-c3nn(-c4ccccc4)ccc3=O)n2)cc1,·,-0.325
CN(C)C(=O)N1CCC(c2nnc(-c3ccc(F)cc3)o2)CC1,·,-0.26
O=S1(=O)C=CC(Nc2ccccc2Cl)C1 (centres undefined),-0.95,0.155
Clc1ccc(-c2nc(NCc3ccco3)c3ccccc3n2)cc1,·,-0.42
O=C(COC(=O)Cc1ccsc1)NCC1CCCCC1,-0.05,0.5
CCOC(=O)c1c(C)[nH]c(C)c1C(=O)COC(=O)C1CC(=O)N(CCc2ccccc2)C1 (centres undefined),0.45,·
Cc1nc(N2CCOCC2)c2c(C)c(C(=O)N3CCN(Cc4ccccc4)CC3)sc2n1,·,0.12
O=C(NCCc1ccccc1)c1cnc2sccn2c1=O,-0.4,·
C/C=N/N(c1ccccc1)c1ccccc1,-0.6,·
CCN1C(=O)N(C)C2C1N(C)C(=O)N2CC (centres undefined),-0.35,·
CCOC(=O)C1=C(C)NC2=C(C(=O)c3ccccc32)C1c1ccc(OC)cc1 (centres undefined),·,0.845
O=C(NCCCCc1ccccc1)c1cccc(S(=O)(=O)O)c1,·,0.005
Cc1cc(Cl)c(S(=O)(=O)N2CCSCC2)cc1OCC(N)=O,-0.15,0.68
O=C1C=CC(=O)N1c1ccc(Br)cc1,0.05,0.455
Cc1ccc(NC(=O)C2C3c4ccccc4C(c4ccccc43)C2C(=O)O)cc1 (centres undefined),2.05,-0.405
COc1cc(NC(=O)c2cc3n(n2)C(C(F)(F)F)CC(c2ccc(Br)cc2)N3)cc(OC)c1OC (centres undefined),·,0.13
Cc1nn(-c2ccccc2)c(Cl)c1C(N)=O,-1.05,·
O=C(COC(=O)c1ccc(O)cc1)NC(c1ccccc1)c1ccccc1,0.2,0
CC1Cc2ccccc2N1C(=O)c1cc2sccc2n1Cc1ccc(F)cc1 (centres undefined),2.6,·
O=[N+]([O-])c1ccc(Sc2ccc(F)cc2)c2nonc12,·,-1.51
CCOc1ccccc1C(=O)NNC(=O)c1ccc(OC)cc1,·,0.29
Cc1c(-c2ccc(O)cc2)nc2nc(-c3ccccc3)c(-c3ccccc3)nn12,·,-0.31
CCOC(=O)c1ccccc1NC(=O)CCc1nc(-c2ccc(OC)cc2)no1,-2.5,0.195
O=C(Nc1ccc2ncccc2c1)c1ccccc1,0.6,·
CCC(C)NC(=O)C1CC(=O)N(C2CCCCC2)C1 (centres undefined),-0.55,-0.8
COc1ccc(N=C(c2ccccc2)c2c(C)[nH]n(-c3ccccc3)c2=O)cc1,·,-0.2
CCCOc1cccc(C(=O)Nc2cccc(C(=O)Nc3nccs3)c2)c1,-0.65,7.55
O=C(O)CC(=O)N1CCSc2ccccc21,0.2,-0.02
NC(=O)C1CCN(C(=O)c2cc3cc(Br)ccc3oc2=O)CC1,0.05,0.62
Cc1[nH]c2ccccc2c1/C=N/n1c(-c2cc3ccccc3o2)csc1=NC1CC1,-0.45,·
CCc1nc2ccc(C(=O)N3CC(C)CC(C)C3)cc2nc1CC (centres undefined),1.05,0.205
CS(=O)(=O)N1C(=O)CCC1=O,-0.15,·
# (further entries)
SMILES,AID504770,CapD inh
CN(C(=O)CSc1ncn[nH]1)C1(C#N)CCCCC1,-0.25,·
O=C(CSCC(=O)Nc1ccccc1Oc1ccccc1)Nc1ccc2ccccc2c1,0.25,-0.05
O=c1/c(=C\c2cc3c(cc2[N+](=O)[O-])OCO3)sc2nc3cc(Br)cnc3n12,·,0.455
Cc1ccc(-n2nc3c(c2NC(=O)c2c(-c4ccccc4Cl)noc2C)CS(=O)(=O)C3)c(C)c1,·,-0.52
Cc1cnc(=O)[nH]c1SCc1ccc(Cl)cc1,0.4,·
O=C(O)c1ccc(S(=O)(=O)Nc2ccc3oc4c(c3c2)C(=O)CCC4)cc1,0.5,0.095
O/N=C/c1cccn1-c1ccc(Br)cc1,-0.1,0.12
O=C(/C=C/c1ccccc1)NCC1CCCO1 (centres undefined),-0.4,-0.445
CC1(C)CC(=O)CC2=C1OC1=C(CC(=O)CC1(C)C)C21C(=O)Nc2ccccc21,·,-0.155
CCOC(=O)N1CCN(c2ccc(Cl)c(Cl)c2)CC1,0.7,-0.545
O=C(NCc1ccc2[nH]c3c(c2c1)CCCC3)c1cccs1,-1.3,0.135
CCOc1ccccc1CNC(=O)OCCc1ccccc1Br,·,0.465
Cc1ccc2c(CC(=O)NC(C)C)coc2c1C,-1.15,·
O=C(/C=C/c1ccc2ccccc2n1)NCC(F)(F)F,-0.15,·
C=CCSC1=N/C(=C\C=C\c2ccco2)C(=O)S1,-0.35,-3
O=C(NN=C1CCCC1)c1ccccc1NS(=O)(=O)c1cccs1,-0.35,·
COc1ccc(-n2c(O)c(/C=N/c3ncn[nH]3)c3ccccc3c2=O)cc1OC,0.45,·
Nc1ccc(C(=O)OCCCc2nc3ccccc3[nH]2)cc1,0.25,-0.63
Sc1c(C=Nc2ccc(Br)cc2)sc2ccccc12,0.5,0.145
CCCCc1nc(-c2ccc(OCC)c(OC)c2)no1,1,0.155
CC12CC(c3ccccc3O1)C(c1nnc(-c3cccc(Br)c3)o1)C(=O)N2 (centres undefined),·,1
Cc1ccc2c(NC(=O)C(C)(C)C)cccc2n1,-0.7,0.025
O=[N+]([O-])c1cc(C(F)(F)F)cc([N+](=O)[O-])c1Sc1ncn[nH]1,·,-1.08
CCN(Cc1ccc2c(c1)OCCO2)C(=O)c1ccc(-n2cccn2)cc1,-1.1,·
O=c1c2c(-c3ccccc3)csc2nc2n1CCC2,0.15,-0.07
COC(=O)c1ccc(S(=O)(=O)N2CCC(c3nc4ccccc4s3)CC2)cc1,0.1,·
COC(=O)C1=C(N)OC2=C(C(=O)CCC2)C1c1ccc(OCc2ccccc2)cc1 (centres undefined),-0.2,-0.62
CN(C)c1ccc(/C=C2\N=C(c3ccc(Br)o3)OC2=O)cc1,0.4,0.34
O=C(c1cccc(F)c1)N1CCN(C(=O)C2CC2)CC1,1.5,-0.325
COC(=O)c1ccc(Oc2nc(Nc3cccc(C)c3C)nc(N3CCC(C)CC3)n2)cc1,0,0.19
O=C(NCc1cccs1)c1cnn2cc(Br)cnc12,0.9,1.17
CCC(CO)NC(=O)c1ccccc1C(F)(F)F (centres undefined),-0.3,-0.455
COc1ccc(-c2ccc(C3Nc4ccc5ccccc5c4C4=C3C(=O)CC(C)(C)C4)o2)c([N+](=O)[O-])c1 (centres undefined),·,0.085
OCc1ccc(OCc2cccs2)cc1,-0.85,-0.13
Cc1ccc(-n2ncc3c(=O)[nH]c(SCC(=O)Nc4ccc5c(c4)OCO5)nc32)cc1C,-0.4,1.58
COc1cc(NS(=O)(=O)c2ccc(F)cc2)c(Cl)cc1Cl,·,-0.345
CSc1nsc(SC)c1C(=O)NC(=O)N1CCOCC1,-0.9,0.03
O=C(c1ccco1)N1CCN(C(=O)c2oc(=O)c3ccccc3c2-c2ccccc2)CC1,-0.55,-0.29
Cc1cc2ncn(Cc3nc(-c4cccc(Br)c4)no3)c2cc1C,-0.7,·
Cc1ccc(NC(=O)C2CC(=O)n3ncnc3N2)cc1C (centres undefined),0.5,-0.13
CCOC(=O)c1c(C)oc2c1C1=NC(CC)CN1C=N2 (centres undefined),-0.9,0.115
COCn1cnc2ccccc21,-1.1,·
Cc1nc2sccn2c1-c1nc(-c2ccccc2)c(C(=O)c2ccc3c(c2)NC(=O)CO3)s1,0.15,·
CCS(=O)(=O)N1CCC(C(=O)NC2CCCCCC2)CC1,0.75,·
CC1(C(=O)O)CCC2C(Br)=CC21C (centres undefined),-1.35,-0.105
O=C1c2cc(S(=O)(=O)N3CCN(C(=O)c4ccco4)CC3)ccc2-c2ccc(S(=O)(=O)N3CCN(C(=O)c4ccco4)CC3)cc21,·,1.23
CCc1cccc(CC)c1N1C(=O)CC(Sc2ccccc2N)C1=O (centres undefined),·,-0.01
CC(SCc1ccccc1)C(=O)Nc1ccccc1 (centres undefined),-0.6,0.155
CCN(CC)S(=O)(=O)c1cccc(-c2nn(CN(CCC#N)Cc3cccnc3)c(=S)n2CC(C)C)c1,-0.35,·
CCO/C=C1/C(=O)N(C)C(=O)c2ccccc21,-0.55,·
Cc1cccc(C)c1NC1=NC(=S)N(c2ccccc2Cl)C12CCC(C(C)(C)C)CC2 (centres undefined),·,-0.295
c1ccc(-c2nc3ccccc3o2)c(-c2nc3ccccc3o2)c1,-0.55,13.7
Cc1cccc(NC(=O)c2sc3nc(-c4ccccc4)cn3c2C)n1,-0.6,0.61
COc1ccc(/C=C/C(=O)Nc2sc3c(c2C(=O)O)CCCC3)cc1,-0.3,-0.17
CCNc1nnc(-c2nn(CC(C)C)c(=O)c3ccccc23)s1,-0.9,·
O=C(Nc1cccc(-c2nc3ncccc3o2)c1)c1ccccc1,0.1,0.55
Cc1sc2ncnc(N3CCN(c4cccc(C(F)(F)F)c4)CC3)c2c1C,-0.05,0.225
O=C(NCC1COc2ccccc2O1)c1ccc2c(c1)OCO2 (centres undefined),-0.55,·
CSc1c2c(c(C#N)c3nc4ccccc4n13)CCCC2,0.5,1.24
CCOC(=O)C1=C2c3cc(OC)c(OC)cc3CC(C)(C)N2C(=O)C1=O,·,-0.825
O=C(Nc1ccc(F)cc1)N1CCC2(CC1)C(=O)NCN2c1ccccc1,-0.2,-0.5

# No enrichment for hits. Share with any hit: about 0.37%.
